PABP FP inh – PABP-poly(A) binding inhibition. PABP-poly(A) RNA binding, fluorescence polarization. inhibition, % at 35 µM. 1% of 290,000 active. AID 2014;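 active means 50% or more with normal probe brightness, or confirmed in later tests; inconclusive means above 50% with abnormal brightness, or retests that disagree; inactive means below 50% or failed in later tests; about a fifth of its hits are not listed in these tables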;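 further: calls also rest on retests at 20 µM and on dose response follow-up; controls were probe without protein and protein plus probe with vehicle; some compounds called inactive have numbers as strong as hits; many hits fall short of the cut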
Target sequence (P11940 whole entry, looked up): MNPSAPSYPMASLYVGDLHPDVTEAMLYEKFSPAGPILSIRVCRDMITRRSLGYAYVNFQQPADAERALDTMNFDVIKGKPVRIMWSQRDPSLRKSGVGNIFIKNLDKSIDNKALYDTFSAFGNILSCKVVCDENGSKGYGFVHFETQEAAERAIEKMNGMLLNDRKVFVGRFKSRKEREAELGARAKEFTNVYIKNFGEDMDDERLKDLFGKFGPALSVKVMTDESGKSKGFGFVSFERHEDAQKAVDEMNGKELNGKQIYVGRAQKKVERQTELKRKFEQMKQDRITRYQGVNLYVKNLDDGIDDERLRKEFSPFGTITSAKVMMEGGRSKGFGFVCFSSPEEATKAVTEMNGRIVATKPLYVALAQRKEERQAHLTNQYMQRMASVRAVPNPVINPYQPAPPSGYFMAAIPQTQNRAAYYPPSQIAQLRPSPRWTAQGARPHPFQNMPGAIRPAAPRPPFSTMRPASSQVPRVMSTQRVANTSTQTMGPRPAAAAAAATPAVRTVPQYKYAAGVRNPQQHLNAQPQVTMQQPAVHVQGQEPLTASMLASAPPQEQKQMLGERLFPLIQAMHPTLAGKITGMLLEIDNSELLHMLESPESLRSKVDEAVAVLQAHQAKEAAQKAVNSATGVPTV
MT1-MMP act inh – inhibitors of human MT1-MMP activation | HT1080 RFP-PRO-GFP cells, GFP/RFP ratio fluorescence, overnight; percent of plate control window, DMSO zero | GFP/RFP ratio change, % at 20 µM | 0.061% of 360,000 active | AID 651647;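 active means GFP/RFP ratio change of at least 30% with cell ATP level not reduced by more than half and red fluorescence within 50% of control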; further: strong numbers were not always called active
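Assay system: HT1080 cells carrying an RFP-PRO-GFP reporter | Dosing: Single dose of 20 µM compound, 1% DMSO final | Incubation: Cells overnight before dosing, compound overnight, 37 °C, 5% CO2 | Evaluation: GFP/RFP fluorescence ratio | Control set: DMSO and RFP-L50D-GFP cell wells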
CSC inhib – blocks cancer stem cells; cancer stem cell-like cells viability, luminescence; inhibition, % at 7.5 µM; 1.1% of 300,000 active; AID 2717;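 active means mean at 75% or more and at least half the replicates too; inconclusive means mean and replicates disagree; tested in HMLE shEcad cells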;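 further: 0% = median of negative and 100% = median of positive control wells; the first replicate is given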
Env fusion inh – blocks HIV Env-driven cell-cell fusion. 1.1% of 360,000 active. HeLa-JRFL Env/CEM21 cell fusion, luciferase. inhibition, % at 12.3 µM;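 active means mean replicate inhibition score of at least 50 and every replicate individually at or above 50; inconclusive means only one of the two criteria met; inactive means mean below 50 and not all replicates reaching 50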;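 further: 0% = plate neutral controls and 100% = maraviroc near 300 nM; one replicate is shown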
Rce1 inh – blocks yeast Ras-converting enzyme; Q03530; 0.27% of 290,000 active; yeast membranes, quenched prenylated peptide cleavage fluorescence; calls only;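 active means fall in fluorescence gain of 50% or more versus controls, with final raw signal at or below 3038400; inconclusive means same 50% fall but final raw signal above 3038400; inactive means fall in fluorescence gain under 50%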;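 further: plate controls were neutral control wells for no effect and wells lacking membranes for full effect; tested at 10 µM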
UUG fidelity – modulators of start codon recognition fidelity in yeast; activity score, % at 18.7 µM; 0.13% of 350,000 active; S. cerevisiae UUG-firefly luciferase reporter, luminescence/redox ratio;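 active means replicate mean at a twofold rise or more, about +100% in these data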;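 further: firefly luciferase made from a UUG start codon reports start codon fidelity; reporter light over untreated wells divided by growth signal over untreated wells; some hits fall short of that in this replicate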
eIF4H inh – inhibitors of RNA binding by human eIF4H; 0.94% of 290,000 active; AID 2012; inhibition, % at 35 µM; Q15056; eIF4H fluorescence polarization binding assay;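 active means 50% or more with normal probe brightness, or confirmed in later tests; inconclusive means above 50% with abnormal brightness, or retests that disagree; inactive means below 50% or failed in later tests; about a fifth of its hits are not listed in these tables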;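 further: calls also rest on retests at 20 µM and on dose response follow-up; 0% = protein and probe with vehicle and 100% = probe without protein; strong numbers were not always called active; many hits fall short of the cut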
eIF4H inh retest – further read-out of eIF4H inh, marked with its call; inhibition, %; compound at 20 µM; confirmation average;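 mean of two retest wells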
PABP FP inh retest – further read-out of PABP FP inh, marked with its call; inhibition, %; compound at 20 µM; confirmation repeats;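 mean of two retest wells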
MT1-MMP act inh RFP – also measured in MT1-MMP act inh; calls as there; RFP signal change, %; measured here: RFP expression control read;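 0 = vehicle wells; hits needed this value within 50% of zero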
* marks the source's active call; other numbers are inactive results; i = inactive; u = inconclusive; x = no result given. An excerpt. The share of hits here may be higher or lower than overall.

SMILES | PABP FP inh | MT1-MMP act inh | MT1-MMP act inh RFP | CSC inhib | Env fusion inh | Rce1 inh | UUG fidelity | eIF4H inh | others
COCCCC1CCN(C(=O)C2CCC(=O)N(Cc3cccc(F)c3)C2)CC1 (stereo not given) | 3 | -1 | 1 | -8 | -4 | i | 1 | 3
CCCCC(=O)N(C)c1c(C)nc2ccc(C(=O)NCCN(C)C)cn12 | x | 0 | 3 | x | 11 | x | -3 | x
CC(=O)c1cccc(NC(=O)/C(=C/c2ccncc2)NC(=O)c2ccccc2)c1 | 4 | 0 | 2 | x | -15 | i | -26 | 4
O=C(O)c1cccc(N2C(=O)c3cc4cccc(Br)c4cc3C2=O)c1 | 15 | -6 | -1 | -1 | 16 | i | -13 | -4
O=C(CSc1nc2c(c(=O)n1-c1ccc(Cl)cc1)SCC2)Nc1nccs1 | 0 | -4 | -1 | -12 | -254 | x | -17 | -1
COc1ccc(-c2nnc(SCC(=O)NCc3cccs3)n2C)cc1 | -16 | 9 | 1 | 3 | -36 | i | -12 | 0
CC(C)C[C@H](NC(=O)/C=C/[C@H]1O[C@@H](n2ccc(=O)[nH]c2=O)[C@H](O)[C@@H]1O)C(=O)O | x | 2 | 5 | x | 33 | x | -12 | x
CCN(C(=O)COC(=O)c1cc(-c2ccccc2)nc2c1c(C)nn2-c1ccc(C)cc1)C1CCS(=O)(=O)C1 (stereo not given) | -8 | 2 | -3 | 10 | 5 | i | x | 6
CCCCN(C(=O)c1ccc(C)o1)c1c(N)n(CC(C)C)c(=O)[nH]c1=O | x | -1 | 4 | -6 | 4 | x | 2 | x
CCc1noc(C)c1C(=O)N1CCN(c2cccc(Cl)c2)CC1 | x | 2 | 0 | x | -1 | x | 10 | x
N#C/C(=C/c1cn(CC(=O)O)c2ccccc12)c1ccc(F)cc1 | -9 | 6 | 6 | 2 | x | i | x | -4
CCOC(=O)[C@@H]1[C@H]2COc3cc(OC)ccc3[C@@H]2N2C(=O)N(c3cccc(Cl)c3)C(=O)[C@@]12C | 15 | -11 | -5 | 9 | x | i | -8 | -4
COc1cc(/C=N/NC(=O)c2cn(-c3cccc(C)n3)cn2)ccc1O | 4 | 3 | 2 | 6 | 1 | i | x | 1
Cc1nn(-c2ccccc2)c(C)c1C(=O)OCC(=O)Nc1ccc2c(c1)OCO2 | -4 | 1 | -1 | -5 | 11 | i | -5 | 77 | eIF4H inh retest=-11;PABP FP inh retest=-1
Cn1c(SCC(=O)c2ccc(O)c(O)c2)nnc1-c1ccccc1 | 17 | 2 | 0 | 5 | 1 | i | -4 | 3
COc1cc2c(cc1OC)-c1nnc(C)n1C(C)(C)C2 | -2 | 13 | 7 | -14 | -14 | i | -19 | -3
COc1cccc(CCC(=O)O)c1OC | x | 3 | 3 | 0 | -90 | i | 0 | x
CN1CCN(C(=S)c2cn(Cc3ccc(F)cc3)c3ccccc23)CC1 | -2 | -1 | 2 | 8 | 17 | i | x | -2
O=C(Cn1cncn1)N/N=C/c1ccccc1Cl | -5 | 2 | 5 | 3 | -12 | i | -16 | 0
Cc1cc(-c2ccc(Cl)cc2)n2ncnc2n1 | -10 | 3 | 0 | -8 | 0 | i | -16 | 3
CCOc1cc2c(cc1OCC)C(c1ccccc1)N(c1ccc(C(=O)O)cc1)C(=O)C2 (stereo not given) | 5 | 2 | 0 | -17 | -8 | i | 22 | -10
CCOc1ccc(C2C3=C(Nc4nc(N)[nH]c(=O)c42)c2ccccc2C3=O)cc1 (stereo not given) | -4 | 13 | -5 | -10 | 25 | i | 4 | 13
C/C(=N\NC(=O)Cc1c(F)cccc1Cl)c1cccnc1 | -7 | -2 | 0 | -2 | 10 | i | -7 | -7
CCOC1=CC2=C(C(=O)C(Cl)=CC2=O)[C@@H]2CN(S(=O)(=O)c3ccc(C)cc3)[C@@H](c3ccccc3)[C@H]12 | x | 0 | -6 | x | -14 | x | -18 | x
Cc1ccc([C@@H]2[C@@H]3C(=O)N(C)C(=O)[C@@H]3[C@@H]3C(=O)Nc4ccccc4C(=O)N23)cc1 | 7 | -7 | 2 | 34 | 15 | i | -6 | 20
CCOc1ccc(-n2c(=O)[nH]c3sc4c(c3c2=O)CCCC4)cc1 | u | -2 | -1 | 3 | 7 | i | x | -3
O=C1CCC/C=C/C[C@H](CC(=O)N(CCO)Cc2ccccc2)C(=O)N[C@@H](Cc2ccccc2)CO1 | x | 5 | 4 | x | 12 | x | -20 | x
O=C(CN1C(=O)NC2(CCCCCC2)C1=O)N1CCCCC1 | x | 1 | 3 | -15 | -65 | x | -10 | x
COc1ccc(CN2C(=O)NC3(CCCC3)C2=O)cc1F | 4 | -1 | 1 | -12 | 13 | i | x | -14
Brc1ccccc1-c1nc(-c2ccccc2)no1 | -11 | x | x | 7 | x | i | x | 0
CO/N=C/C(c1ncc(C(F)(F)F)cc1Cl)S(=O)(=O)c1ccccc1 (stereo not given) | 7 | -1 | 2 | 0 | 8 | i | -15 | 8
COc1ccccc1OCC(=O)NCCC1=CCCCC1 | 1 | 1 | 0 | -2 | 20 | i | x | -1
Cc1cccc(OCc2nc(C#N)c(N3CC(C)CC(C)C3)o2)c1 (stereo not given) | -8 | -5 | -4 | 11 | -1 | i | -7 | -5
O=C1CC(N2CCOCC2)C(=O)N1CCc1ccccc1 (stereo not given) | -2 | 3 | 4 | -6 | x | i | -11 | 3
CC(C)(Oc1ccc(Cl)cc1)C(=O)Nc1cccnc1 | 18 | -1 | 0 | 3 | x | i | 1 | 48
O=C(NCCN1CCN(Cc2ccccc2)CC1)c1ccc(CS(=O)(=O)c2c(Cl)cccc2Cl)o1 | x | 1 | -3 | x | 13 | x | -3 | x
COc1ccc(/C=C2/CCc3ccccc3C2=O)cc1OC | -12 | -3 | -13 | -11 | 58* | i | 2 | 43
CCCc1nn(C)c(C(N)=O)c1[N+](=O)[O-] | 0 | -1 | 2 | 0 | 0 | i | x | -2
CN(C)NC(=S)Nc1ccc(S(=O)(=O)N2CCCCC2)cc1 | 16 | 4 | 2 | 1 | 9 | i | -23 | 5
COc1cccc(CNC(=O)C2(C)CCCN2C(=O)C(C)C)c1 (stereo not given) | x | 6 | 6 | x | 1 | x | -15 | x

Overlap with the part before: 2 compounds, then new ones.
SMILES | PABP FP inh | MT1-MMP act inh | MT1-MMP act inh RFP | CSC inhib | Env fusion inh | Rce1 inh | UUG fidelity | eIF4H inh | others
CN(C)NC(=S)Nc1ccc(S(=O)(=O)N2CCCCC2)cc1 | 16 | 4 | 2 | 1 | 9 | i | -23 | 5
COc1cccc(CNC(=O)C2(C)CCCN2C(=O)C(C)C)c1 (stereo not given) | x | 6 | 6 | x | 1 | x | -15 | x
C[C@@H](C(=O)Nc1cccnc1)n1c(=O)[nH]c2ccccc2c1=O | 1 | 1 | 5 | -11 | -1 | i | -13 | 0
COCCCNCCOCCOc1c(OC)cccc1OC | -2 | 0 | 7 | -9 | x | i | x | 5
Cc1cc(NC(=O)c2ccccc2F)ncc1NC(=O)c1cccs1 | -7 | -1 | 0 | -4 | -23 | i | x | 6
O=C(NCCOc1ccccc1)c1cc(C(=O)NCCOc2ccccc2)cc([N+](=O)[O-])c1 | 24 | 1 | -15 | 13 | 5 | i | 2 | -2
Cc1c(NC(=O)COC(=O)C2=COCCO2)cccc1[N+](=O)[O-] | x | 1 | 2 | -7 | 12 | i | 0 | x
Cc1nc(CNS(=O)(=O)c2cccc(F)c2)cs1 | 2 | 3 | -3 | -9 | -32 | i | -4 | -16
Cc1cc(N2CCOCC2)c2c(N)c(C)cc(C)c2n1 | -1 | 0 | -5 | 6 | -22 | x | -9 | -5
COc1cc(CCNC(=O)c2ccccc2NC(=O)C2=C(C)OCCS2)cc(OC)c1OC | 1 | 3 | -4 | 0 | 16 | i | 0 | 4
O=C(NCC1CCCO1)c1ccccc1-c1nc(-c2ccccc2Cl)no1 (stereo not given) | -7 | -6 | -2 | 10 | -9 | i | x | -6
CC(=O)Nc1cccc(Oc2nc(NC(C)C)nc3cc(-c4ccccc4)sc23)c1 | x | 0 | -5 | x | -47 | x | -4 | x
CCOc1cc(/C=N/Nc2nc(Nc3ccccc3)nc(N3CCCCC3)n2)ccc1OCC(=O)O | u | 3 | -1 | -10 | -4 | i | -14 | 2
CC1CC(C)CN(C(=O)Cn2c(=O)n(CCCC(=O)NCc3ccco3)c(=O)c3sccc32)C1 (stereo not given) | 15 | -5 | 1 | x | 0 | i | 1 | 9
O=C(COc1ccc(Cl)cc1)OCC(=O)c1ccc[nH]1 | x | 0 | 3 | 7 | 12 | x | -10 | x
CC(=O)Nc1ccc(C(=O)NCC2(N3CCCCC3)CCCCC2)cc1 | 24 | -4 | 3 | -3 | -1 | i | -8 | 5
COc1ccccc1C(=O)COC(=O)/C=C/c1ccccc1 | 2 | 3 | 3 | 5 | -36 | i | -20 | -11
COc1ccccc1OCC(=O)Nc1cc(Cl)ccc1Oc1ccccc1 | 0 | 4 | 5 | 32 | 13 | i | 2 | -10
Cc1cccc(N2CC(C(=O)OCc3ccc([N+](=O)[O-])cc3)CC2=O)c1 (stereo not given) | -4 | 1 | -3 | -4 | -17 | i | x | -5
COC[C@@H]1CCCN1[C@H]1CS(=O)(=O)N[C@@H]1COCc1ccccc1 | x | 4 | 4 | x | -33 | x | -11 | x
Cc1ccc(C)c(OCC(=O)Nc2ccc(S(=O)(=O)Nc3ccccn3)cc2)c1 | 28 | 6 | 4 | 6 | 22 | i | -17 | -12
CCOC(=O)c1ccc(NC(=O)N2CCN(CCc3ccccc3)CC2)cc1 | -6 | 1 | -3 | 27 | 8 | i | -5 | -1
CN1OC[C@@H]2CN(S(=O)(=O)c3ccccc3)[C@H](c3ccc(N4CCCCC4)cc3)C[C@@H]21 | x | 2 | 3 | x | -7 | x | -1 | x
CCOC(=O)C1CCCN(CC(=O)/C=C2/N(C)c3ccccc3C2(C)C)C1 (stereo not given) | 5 | 11 | 6 | -4 | x | i | 3 | 4
O=C(NCc1ccc(F)cc1)N1CCN(C(=O)c2ccccc2)CC1 | x | -1 | -3 | x | 11 | x | 21 | x
CC(C)OC(=O)C1Cc2ccccc2CN1S(=O)(=O)c1cccs1 (stereo not given) | 7 | 0 | 0 | -17 | 2 | x | -10 | 2
O=C(CCCO)NNc1c2ccccc2nc2ccccc12 | -3 | 1 | -2 | -11 | -1 | i | x | -2
COC(=O)c1c(O)c2c([nH]c1=O)CCCC2 | -9 | -2 | 0 | -9 | x | i | -18 | -6
CC(C)CCOC(=O)/C(=C/c1ccco1)NC(=O)/C=C/c1ccccc1 | 2 | 0 | 5 | -7 | 0 | i | x | 1
COc1ccc(C(=O)OC(C)C(=O)Nc2cc(C(F)(F)F)ccc2Cl)c(OC)c1OC (stereo not given) | 5 | -3 | -15 | -7 | x | i | -11 | -10
CC(C)c1ccc(C(=O)OC2CCOC2=O)cc1 (stereo not given) | -11 | -1 | 0 | 0 | -12 | i | -9 | -11
Cc1ccc(N=C2NC(=O)C(CC(=O)O)S2)cc1 (stereo not given) | 3 | -7 | 2 | -13 | x | i | -15 | 3
COc1ccccc1-n1cnnc1SC(C)C(=O)NCC1CCCO1 (stereo not given) | x | 2 | 4 | -7 | -4 | x | -8 | x
O=C(CNC(=O)c1cccs1)N/N=C/c1ccc(Cl)cc1 | 14 | 1 | 0 | -2 | 10 | i | -4 | 1
c1ccc(Nc2ncnc3c2oc2ccccc23)cc1 | 0 | -7 | 1 | 3 | -125 | i | -1 | -7

Screens from PubChem.
